# Source: PubChem (Broad Institute)
# A1 apoptosis 2 = A1 inhibitors via caspase activation, primary screen, cell-based, luminescence, HTS, two replicates | caspase activation, % (concentration not given with the values) | 24,000 tested, under 10 active | MEF A1-2A-BIM cells, caspase-Glo luminescence, 3 h; percent of clofoctol response, DMSO zero; in the data active = caspase activation above about 5.9%;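 also: wells of about 30 µL received 50 nL stock; the first replicate is given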
#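 Test system – A1-2A-BIM-expressing MEF cells · Input – 2500 cells/well · Medium – RPMI-1640 growth medium with 10% FBS · Compound dosing – 50 nL pinned compound · Timing – 3 h compound exposure at 37 °C · Technique – Caspase-Glo luminescence (DEVD substrate) · Evaluation – Caspase-3/7 activity from luminescence increase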
# * hit, by the source's call. These rows are one share of the data; the hit share may differ from the screen's.
SMILES,A1 apoptosis 2
COc1ccc(CN(C)C[C@H]2Oc3ccc(NC(=O)Cc4cn(C)c5ccccc45)cc3C(=O)N([C@@H](C)CO)C[C@H]2C)cc1,-0.5
Cc1ccc(S(=O)(=O)N(C)C[C@@H]2OCCCC[C@H](C)Oc3ccc(NC(=O)Nc4ccc(F)cc4)cc3C(=O)N([C@@H](C)CO)C[C@H]2C)cc1,-0.1
COc1ccc(CN(C)C[C@@H]2OCCCC[C@@H](C)Oc3ccc(NC(=O)NC(C)C)cc3C(=O)N([C@H](C)CO)C[C@@H]2C)cc1,0.7
C[C@H](CO)N1C[C@H](C)[C@H](CN(C)CC2CC2)Oc2ccc(NS(=O)(=O)c3ccc(F)cc3)cc2CC1=O,-0.1
C[C@@H]1CN([C@@H](C)CO)C(=O)Cc2cc(NS(=O)(=O)c3cn(C)cn3)ccc2O[C@@H]1CN(C)C(=O)Nc1cccc2ccccc12,0.4
C[C@H]1CN([C@@H](C)CO)C(=O)Cc2cc(NC(=O)CCCCCC(=O)Nc3ccccc3N)ccc2O[C@H]1CN(C)CC1CCCCC1,0.8
Cc1noc(C)c1S(=O)(=O)N(C)C[C@H]1Oc2c(NC(=O)C3CC3)cccc2C(=O)N([C@@H](C)CO)C[C@H]1C,0.6
C[C@@H]1CN([C@H](C)CO)C(=O)c2cc(NC(=O)c3ccncc3)ccc2O[C@@H]1CN(C)C(=O)Nc1cccc2ccccc12,1.3
C[C@H](CO)N1C[C@H](C)[C@H](CN(C)S(=O)(=O)c2cn(C)cn2)Oc2c(NC(=O)Nc3ccc(C(F)(F)F)cc3)cccc2C1=O,-0.8
C[C@@H]1CN([C@H](C)CO)C(=O)Cc2cc(NC(=O)C3CCCCC3)ccc2O[C@@H]1CN(C)C(=O)Nc1ccc(F)cc1,-0.1
C[C@H]1CCCCO[C@@H](CN(C)CC2CCCCC2)[C@@H](C)CN([C@@H](C)CO)C(=O)c2cc(NC(=O)c3ccncc3)ccc2O1,0.1
C[C@H](CO)N1C[C@H](C)[C@H](CN(C)S(=O)(=O)c2ccccc2)Oc2ccc(NS(=O)(=O)c3ccc(Cl)cc3)cc2C1=O,-1.8
Cc1noc(C)c1NC(=O)Nc1ccc2c(c1)CC(=O)N([C@@H](C)CO)C[C@@H](C)[C@H](CN(C)C(=O)Nc1ccc(F)cc1)O2,0.3
C[C@@H]1CCCCO[C@@H](CN(C)C)[C@H](C)CN([C@@H](C)CO)C(=O)c2cc(NS(C)(=O)=O)ccc2O1,0.4
Cc1noc(C)c1NC(=O)Nc1cccc2c1O[C@H](CN(C)CC1CC1)[C@@H](C)CN([C@H](C)CO)C2=O,0.7
C[C@H](CO)N1C[C@H](C)[C@@H](CN(C)C)OCCCC[C@H](C)Oc2ccc(NC(=O)Nc3ccc(C(F)(F)F)cc3)cc2C1=O,-0.2
C[C@@H]1CN([C@@H](C)CO)C(=O)c2cc(NS(C)(=O)=O)ccc2O[C@H]1CN(C)CC1CC1,-0.1
C[C@@H]1CN([C@@H](C)CO)C(=O)c2cc(NS(=O)(=O)c3cn(C)cn3)ccc2O[C@@H](C)CCCCO[C@@H]1CN(C)C(=O)Nc1ccc(C(F)(F)F)cc1,0.8
CCCN(C)C[C@H]1OCCCC[C@H](C)Oc2ccc(NS(=O)(=O)c3c(C)noc3C)cc2C(=O)N([C@H](C)CO)C[C@H]1C,-0.9
C[C@@H]1CN([C@H](C)CO)C(=O)c2cc(NC(=O)Cc3ccccc3)ccc2O[C@@H](C)CCCCO[C@@H]1CN(C)S(C)(=O)=O,0.0
COc1ccc(/C=N/NC(=O)CCCCCC(=O)Nc2ccccc2O)c(OC)c1,0.2
COc1ccc(S(=O)(=O)Nc2cccc3c2O[C@H](CN(C)CC2CC2)[C@H](C)CN([C@H](C)CO)C3=O)cc1,-0.2
C[C@@H]1CCCCO[C@H](CN(C)Cc2ccc(C(F)(F)F)cc2)[C@@H](C)CN([C@@H](C)CO)C(=O)c2cc(NC(=O)Nc3ccc(F)cc3)ccc2O1,-0.6
C[C@@H]1CN([C@@H](C)CO)C(=O)c2cccc(NC(=O)Nc3ccc(C(F)(F)F)cc3)c2O[C@H]1CN(C)S(C)(=O)=O,-0.4
C[C@@H]1CCCCO[C@H](CN(C)S(=O)(=O)c2ccc(F)cc2)[C@@H](C)CN([C@@H](C)CO)C(=O)c2cc(NS(=O)(=O)c3cn(C)cn3)ccc2O1,1.1
CCCN(C)C[C@H]1OCCCC[C@@H](C)Oc2ccc(NC(=O)CCCN(C)C)cc2C(=O)N([C@@H](C)CO)C[C@@H]1C,1.4
Cc1ccc(S(=O)(=O)N(C)C[C@H]2OCCCC[C@@H](C)Oc3ccc(NC(=O)Nc4ccccc4)cc3C(=O)N([C@H](C)CO)C[C@@H]2C)cc1,-0.2
C[C@H](CO)N1C[C@H](C)[C@@H](CN(C)C(=O)Cc2ccccc2)OCCCC[C@H](C)Oc2ccc(NC(=O)NC3CCCCC3)cc2C1=O,1.1
C[C@H](CO)N1C[C@H](C)[C@H](CN(C)Cc2ccncc2)Oc2ccc(NC(=O)Nc3ccccc3)cc2CC1=O,2.1
Cc1cc(C(=O)Nc2cccc3c2O[C@H](CN(C)C(=O)NC2CCCCC2)[C@@H](C)CN([C@@H](C)CO)C3=O)n(C)n1,-0.2
CC(C)Nc1cccnc1N1CCN(C(=O)c2cc3cc(O)ccc3[nH]2)CC1,0.9
COc1ccc(NC(=O)N(C)C[C@H]2Oc3c(NC(=O)Nc4ccc(F)cc4)cccc3C(=O)N([C@H](C)CO)C[C@H]2C)cc1,0.9
C[C@H](CO)N1C[C@H](C)[C@@H](CN(C)CC2CC2)Oc2ccc(NC(=O)CCCN(C)C)cc2C1=O,0.1
COc1ccc(S(=O)(=O)Nc2ccc3c(c2)CC(=O)N([C@H](C)CO)C[C@@H](C)[C@@H](CN(C)Cc2ccc(-c4ccccc4)cc2)O3)cc1,0.7
C[C@@H]1CN([C@H](C)CO)C(=O)c2cccc(NC(=O)c3ccncc3)c2O[C@@H]1CN(C)Cc1ccc2c(c1)OCO2,-0.2
C[C@@H]1CCCCO[C@@H](CN(C)C(=O)Nc2cccc3ccccc23)[C@H](C)CN([C@H](C)CO)C(=O)c2cc(NS(C)(=O)=O)ccc2O1,0.0
Cc1noc(C)c1NC(=O)Nc1ccc2c(c1)CC(=O)N([C@@H](C)CO)C[C@@H](C)[C@@H](CN(C)C(=O)Nc1ccc(F)cc1)O2,0.0
CNC[C@H]1OCCCC[C@@H](C)Oc2ccc(NC(=O)Nc3ccc4c(c3)OCO4)cc2C(=O)N([C@@H](C)CO)C[C@H]1C,0.1
C[C@@H]1CN([C@@H](C)CO)C(=O)Cc2cc(NC(=O)Cc3ccccc3)ccc2O[C@@H]1CN(C)Cc1ccc(Cl)c(Cl)c1,0.4
C=C[C@@H](OC)[C@H](OC(=O)Nc1ccc(SC)cc1)c1ccc(OCCO)cc1,0.5

# In the list so far, two contain two or more sulfur atoms:
SMILES,A1 apoptosis 2
C[C@H](CO)N1C[C@H](C)[C@H](CN(C)S(=O)(=O)c2ccccc2)Oc2ccc(NS(=O)(=O)c3ccc(Cl)cc3)cc2C1=O,-1.8
C[C@@H]1CCCCO[C@H](CN(C)S(=O)(=O)c2ccc(F)cc2)[C@@H](C)CN([C@@H](C)CO)C(=O)c2cc(NS(=O)(=O)c3cn(C)cn3)ccc2O1,1.1

# Structural class, the entries above with a CF3 group (5)
SMILES,A1 apoptosis 2
C[C@H](CO)N1C[C@H](C)[C@H](CN(C)S(=O)(=O)c2cn(C)cn2)Oc2c(NC(=O)Nc3ccc(C(F)(F)F)cc3)cccc2C1=O,-0.8
C[C@H](CO)N1C[C@H](C)[C@@H](CN(C)C)OCCCC[C@H](C)Oc2ccc(NC(=O)Nc3ccc(C(F)(F)F)cc3)cc2C1=O,-0.2
C[C@@H]1CN([C@@H](C)CO)C(=O)c2cc(NS(=O)(=O)c3cn(C)cn3)ccc2O[C@@H](C)CCCCO[C@@H]1CN(C)C(=O)Nc1ccc(C(F)(F)F)cc1,0.8
C[C@@H]1CCCCO[C@H](CN(C)Cc2ccc(C(F)(F)F)cc2)[C@@H](C)CN([C@@H](C)CO)C(=O)c2cc(NC(=O)Nc3ccc(F)cc3)ccc2O1,-0.6
C[C@@H]1CN([C@@H](C)CO)C(=O)c2cccc(NC(=O)Nc3ccc(C(F)(F)F)cc3)c2O[C@H]1CN(C)S(C)(=O)=O,-0.4

# Going on with the list.
SMILES,A1 apoptosis 2
CC(C)NC(=O)N(C)C[C@H]1Oc2c(NS(C)(=O)=O)cccc2C(=O)N([C@@H](C)CO)C[C@H]1C,-0.1
C[C@H](CO)N1C[C@H](C)[C@@H](CN(C)S(=O)(=O)c2ccccc2)Oc2ccc(NC(=O)Cc3cn(C)c4ccccc34)cc2CC1=O,0.5
C[C@H]1CN([C@@H](C)CO)C(=O)Cc2cc(NC(=O)CCC(F)(F)F)ccc2O[C@@H]1CN(C)S(=O)(=O)c1ccc(F)cc1,0.3
C[C@@H]1CN([C@H](C)CO)C(=O)Cc2cc(NC(=O)Nc3ccccc3)ccc2O[C@@H]1CN(C)Cc1ccc(C(=O)Nc2ccccc2N)cc1,-0.9
C[C@H](CO)N1C[C@H](C)[C@H](CN(C)S(=O)(=O)c2cccs2)Oc2ncc(-c3cc4ccccc4o3)cc2C1=O,-0.4
COc1ccc(NC(=O)N(C)C[C@@H]2Oc3ccc(NC(=O)Cn4cnnn4)cc3CC(=O)N([C@@H](C)CO)C[C@@H]2C)cc1,-1.0
COc1ccc(S(=O)(=O)Nc2ccc3c(c2)CC(=O)N([C@H](C)CO)C[C@H](C)[C@@H](CN(C)Cc2ccc(-c4ccccc4)cc2)O3)cc1,-0.7
C[C@H](CO)N1C[C@H](C)[C@H](CN(C)Cc2ccc(C(=O)O)cc2)OCCCC[C@H](C)Oc2ccc(NC(=O)Nc3ccc4c(c3)OCO4)cc2C1=O,0.8
C[C@H](CO)N1C[C@H](C)[C@@H](CN(C)S(=O)(=O)c2ccc(F)cc2)Oc2ccc(NC(=O)CCN3CCOCC3)cc2C1=O,1.2
Cc1ccc(S(=O)(=O)N(C)C[C@@H]2OCCCC[C@H](C)Oc3ccc(NC(=O)C4CCCCC4)cc3C(=O)N([C@H](C)CO)C[C@@H]2C)cc1,-0.6
Cc1ccc(S(=O)(=O)N(C)C[C@@H]2Oc3c(NC(=O)c4nc5ccccc5s4)cccc3C(=O)N([C@H](C)CO)C[C@H]2C)cc1,0.2
C[C@H](CO)N1C[C@H](C)[C@@H](CN(C)Cc2ccccc2)Oc2c(NC(=O)C3CCCCC3)cccc2C1=O,-0.6
C[C@@H]1CN([C@@H](C)CO)C(=O)c2cc(NC(=O)Cn3cnnn3)ccc2O[C@@H]1CN(C)C(=O)Nc1ccc(F)cc1,-0.3
C[C@H](CO)N1C[C@H](C)[C@@H](CN(C)C)Oc2ccc(NC(=O)CCN3CCOCC3)cc2C1=O,-0.7
C[C@H]1CN([C@@H](C)CO)C(=O)c2cccc(NC(=O)Nc3ccc4c(c3)OCO4)c2O[C@@H]1CN(C)S(=O)(=O)c1ccc(F)cc1,1.5
C[C@@H]1CN([C@H](C)CO)C(=O)CCCn2cc(nn2)CO[C@H]1CN(C)C(=O)OCc1ccccc1,0.8
C[C@H]1CN([C@@H](C)CO)C(=O)c2cccc(N(C)C)c2O[C@@H]1CN(C)Cc1ccc(-c2ccccc2)cc1,0.7
C[C@H]1CN([C@@H](C)CO)C(=O)c2cc(NS(=O)(=O)c3cn(C)cn3)ccc2O[C@@H]1CN(C)C(=O)Nc1ccc2c(c1)OCO2,-1.0
C[C@@H]1CN([C@H](C)CO)C(=O)Cc2cc(NC(=O)Nc3ccccc3)ccc2O[C@@H]1CN(C)S(=O)(=O)c1ccc(Cl)cc1,-1.0
C[C@@H]1CN([C@H](C)CO)C(=O)c2cc(NC(=O)CCCN(C)C)ccc2O[C@H]1CN(C)Cc1ccc(-c2ccccc2)cc1,0.9
CO[C@H]1O[C@H](CO)[C@@H](OC(=O)Nc2ccccc2-c2ccccc2)[C@H](OC(=O)Nc2ccc3c(c2)OCO3)[C@@H]1OC(=O)Nc1ccc2c(c1)OCO2,0.6
C[C@H](CO)N1C[C@H](C)[C@H](CN(C)C(=O)Nc2ccc(F)cc2)Oc2ccc(NC(=O)CCCCCC(=O)Nc3ccccc3N)cc2C1=O,0.2
C[C@@H]1CN([C@@H](C)CO)C(=O)c2cc(NS(=O)(=O)c3ccc(F)cc3)ccc2O[C@@H](C)CCCCO[C@H]1CN(C)S(=O)(=O)c1cccs1,-1.2
C[C@H]1CN([C@@H](C)CO)C(=O)c2cc(NC(=O)c3ccncc3)ccc2O[C@H]1CN(C)S(=O)(=O)c1ccc(F)cc1,-0.2
C[C@@H]1CN([C@@H](C)CO)C(=O)CCCn2cc(nn2)CO[C@@H]1CN(C)Cc1cccc(O)c1,1.0
C[C@@H]1CN([C@@H](C)CO)C(=O)CCCn2cc(nn2)CO[C@H]1CN(C)C(=O)C1CCCCC1,-0.4
C[C@@H]1CCCCO[C@@H](CN(C)Cc2ccccc2)[C@@H](C)CN([C@H](C)CO)C(=O)c2cc(NC(=O)CCC(F)(F)F)ccc2O1,-0.2
C[C@@H]1CCCCO[C@@H](CN(C)S(=O)(=O)c2ccccc2)[C@@H](C)CN([C@H](C)CO)C(=O)c2cc(NC(=O)Nc3ccc4c(c3)OCO4)ccc2O1,-1.5
Cc1noc(C)c1NC(=O)Nc1ccc2c(c1)C(=O)N([C@@H](C)CO)C[C@@H](C)[C@@H](CN(C)Cc1ccc(C(=O)O)cc1)OCCCC[C@@H](C)O2,0.9
O=C(N/N=C/c1ccc(-c2cccc(Cl)c2)o1)c1ccccn1,-1.4
C[C@@H]1CN([C@@H](C)CO)C(=O)CCCn2nncc2CO[C@H]1CN(C)CC1CC1,-0.3
